GALR2 agonist: agonists of human galanin receptor 2 (GALR2) | GALR2-expressing cells, agonist activation read-out | activation, %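 (tested at 5 µM)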 | AID 803 | hit rate 0.48% among 140,000;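 active = above mean plus 3 SD of all compounds, about 5% in these data, not always enough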;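 note: 0% = vehicle buffer wells and 100% = reference agonist at full effect; tested in CHO reporter cells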
Target sequence (O43603 whole entry, looked up): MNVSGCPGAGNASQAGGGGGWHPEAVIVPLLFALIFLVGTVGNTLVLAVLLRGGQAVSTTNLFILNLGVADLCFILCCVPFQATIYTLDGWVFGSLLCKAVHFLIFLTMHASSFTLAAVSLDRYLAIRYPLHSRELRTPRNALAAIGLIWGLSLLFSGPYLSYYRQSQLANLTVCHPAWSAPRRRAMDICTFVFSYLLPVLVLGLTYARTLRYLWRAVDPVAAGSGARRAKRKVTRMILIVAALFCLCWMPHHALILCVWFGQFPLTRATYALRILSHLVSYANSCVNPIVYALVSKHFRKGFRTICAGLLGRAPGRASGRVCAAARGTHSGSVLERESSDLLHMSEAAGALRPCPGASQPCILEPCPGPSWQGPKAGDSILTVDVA
INS promoter inh: TRM-6 insulin promoter activity inhibition | TRM-6 cells (human fetal islet line), insulin promoter-eGFP reporter, imaging; reporter expression induced with tamoxifen | inhibition, % at 2 µM | hit rate 0.9% among 130,000 | AID 1273;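 active = inhibition above the mean plus 3 SD, with well images judged a real hit on visual review, cut at about 60% in these data, passing the limit was not always enough; inconclusive = inhibition over the cutoff but images rejected on review; inactive = inhibition not above the cutoff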
HSV augment: increases HSV replication in cells. HSV replication augmentation in cells, fold increase. maximum fold increase. hit rate 0.005% among 220,000;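 active = peak rise of 1.5-fold or more in the series; inconclusive = self-fluorescent or not available for retest; tested in PC3 cells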;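 note: first round at 10 µM; read as green reporter fluorescence; hits show the peak of a series up to 25 µM; 1 = signal of infected wells without compound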
PKD1 kinase inh: PKD1 (human) kinase inhibition; PKD1 kinase fluorescence polarization assay; inhibition, %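 (about 10 µM by stock and volumes)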; hit rate 0.056% among 200,000; AID 797;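 active = inhibition of 50% or more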;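 note: controls were vehicle for no effect and a reference inhibitor for full effect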
RGS16-Gao: regulators of human RGS16-Galphao interaction. binding response (% of control), % at 10 µM. O15492+P09471. bead-based flow cytometry RGS16-Galphao binding, fluorescence; actives lie on both sides. hit rate 0.38% among 220,000;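 active = below 25% or above 175%, edge rows of some plates excepted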;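 note: Galphao activated by GDP with aluminum fluoride before binding; 100% = wells without compound and 0% = beads without RGS; some results beyond the cut were filed as inactive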
Target sequence (O15492 whole entry, looked up): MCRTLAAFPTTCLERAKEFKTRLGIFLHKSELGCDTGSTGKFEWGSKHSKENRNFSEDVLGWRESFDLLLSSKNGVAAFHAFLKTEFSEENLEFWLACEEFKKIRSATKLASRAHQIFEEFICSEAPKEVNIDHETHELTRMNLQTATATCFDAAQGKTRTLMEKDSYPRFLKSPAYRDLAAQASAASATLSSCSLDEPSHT
Target sequence (P09471 whole entry, looked up): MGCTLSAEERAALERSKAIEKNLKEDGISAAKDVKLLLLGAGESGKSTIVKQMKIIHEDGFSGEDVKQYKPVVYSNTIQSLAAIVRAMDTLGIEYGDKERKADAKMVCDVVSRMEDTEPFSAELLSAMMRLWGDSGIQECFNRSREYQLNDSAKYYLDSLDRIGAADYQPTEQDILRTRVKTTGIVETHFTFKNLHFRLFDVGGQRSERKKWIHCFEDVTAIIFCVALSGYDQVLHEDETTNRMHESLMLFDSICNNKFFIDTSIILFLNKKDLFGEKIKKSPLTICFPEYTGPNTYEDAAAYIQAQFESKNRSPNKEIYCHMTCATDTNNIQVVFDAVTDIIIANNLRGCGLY
INS promoter inh cell count: further read-out of INS promoter inh, marked with its call; normalized cell count, %; measured here: cell count, toxicity; reference of the scale not given here;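 cells exposed to compound for 48 h; stained nuclei by imaging scaled within each plate; lower means fewer cells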
HSV augment primary fold: further read-out of HSV augment, marked with its call; fold increase; compound at 10 µM; measured here: primary screen fold increase 10 uM; tested in PC3 cells;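 GFP signal in the first replicate; 1 = infected wells without compound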
* hit, by the source's call; i = inactive; ? = inconclusive; . = not tested or not shown; & = joins results of further samples. An unsorted share of the library; 1.3% or so of the library scored in one or more.

compound	GALR2 agonist	INS promoter inh	INS promoter inh cell count	HSV augment	HSV augment primary fold	PKD1 kinase inh	RGS16-Gao
O=C(Cn1c(=O)n(Cc2ccco2)c(=O)c2cc(Cl)ccc21)NCC1CCCO1 (centres undefined)	0.2	-26	148	i	0.9	6	74
O=S(=O)(c1ccc(NC(=S)NC2CC2)cc1)N1CCOCC1	.	.	.	i	0.96	0	101
CC(=O)NC1(c2nnnn2CCOC(=O)Nc2ccc(Cl)cc2)CCCC1	.	.	.	i	0.78	-2	98
CN1CCN(c2ncc(CN3C(=O)c4ccccc4C3=O)s2)CC1	.	.	.	i	1	4	100
CCOc1ccc(CCNC(=O)C2CCN(c3nnc(-n4cccc4)s3)CC2)cc1	-1.1	.	.	i	0.97	-6	100
CCOC(=O)C(C)n1nc(-c2ccccc2)c2ccccc2c1=O (centres undefined)	.	.	.	i	0.85	-5	101
N#CC1=C(N)Oc2cc(N)ccc2C1C1CCCCC1 (centres undefined)	7.8	-333	44	i	0.53	-1	106
CC(C)(C#N)C(C)(C)c1nn[nH]n1	2.4	-45	83	i	0.79	-13	98
CCCC(c1nnnn1C(C)(C)C)N1CCN(c2ccccc2)CC1 (centres undefined)	.	.	.	i	0.97	-2	109
CCOc1ccc(CCNC(=O)COC(=O)c2nc3nc(C)cc(C)n3n2)cc1OCC	-0.1	.	.	i	0.91	-4	99
O=c1c2c3nc4ccccc4nc3n(/N=C/c3ccccn3)c2ncn1-c1ccccc1	.	.	.	i	0.7	.	104
O=C(Nc1ccc(-c2nc3ccccc3o2)c(O)c1)c1cc(-n2cnnc2)ccc1Cl	0.6	-27	95	i	0.95	-2	99
Nc1nc(CCl)nc(N(c2ccccc2)c2ccccc2)n1	.	.	.	i	0.59	.	115
CN(C)CCCN1c2ccccc2Sc2ccc(C(F)(F)F)cc21	-0.4	-27	79	i	0.61	-5	100
N#CC1=C(N)n2c(s/c(=C\c3cccs3)c2=O)=C(C#N)C1c1cccs1 (centres undefined)	-0.2	.	.	?	.	-10	96
O=C(Nc1cc(C(F)(F)F)ccc1-n1cncn1)c1ccc(Cl)cc1	-2.2	-1	115	i	0.87	2	105
Cc1ccc(-c2ccc(/C=N/NC(=O)c3ccccc3O)o2)cc1	.	.	.	i	0.92	.	103
S=C(Nc1cccc(Cl)c1)N1CCN(Cc2ccccc2)CC1	-0.3	3	105	i	1	5	99
Cc1ccc(N/N=C(\C#N)C(=N)N2CCCCC2)cc1	.	.	.	i	1	.	103
C(=N\N1CCN(c2ccccn2)CC1)/c1ccccn1	.	.	.	i	1.1	.	94
C=CCn1c(SCC(=O)NC2CCCCC2)nnc1-c1sc(N)nc1C	0.5	50	61	i	0.91	-9	96
CCn1c(SCC(=O)N2CCOCC2)nc(O)cc1=O	-2.9	.	.	i	0.98	4	102
O=C(Cn1nnc(-c2ccccc2NC(=O)C2CC2)n1)NC1CCCCC1	-2.0	38	99	i	0.9	3	100
CC(=O)C1C(c2cccc(Oc3ccccc3)c2)NC(=O)NC1(O)C(F)(F)F (centres undefined)	-0.2	9	126	.	.	-9	102
COc1ccc(C(C(=O)NC2CCCC2)N(C(=O)c2snc(-c3ccc(F)cc3)c2N)c2ccccc2)cc1 (centres undefined)	-1.3	12	110	i	0.71	-5	94
Cc1cccc(C2CC(c3ccccc3)Nc3ncnn32)c1 (centres undefined)	.	.	.	i	1.1	-11	101
CCO[C@@H]1OC(C(=O)NCc2ccccc2)=C[C@H](C)[C@H]1CCCO	.	.	.	i	0.88	1	94
CCC(C(=O)Nc1cc(C)nn1-c1nc(C)cc(C)n1)c1ccccc1 (centres undefined)	1.4	.	.	i	0.94	1	92
Cc1cc2n(c1)CCn1c(C)ccc1-2	-0.7	.	.	i	0.96	-1	59
COc1ccc(OC)c(NC(=O)C2CCCN(S(=O)(=O)c3cccc4nsnc34)C2)c1 (centres undefined)	-1.5	0	108	i	0.92	14	84
Nc1nc2ccc(OC(F)(F)F)cc2s1	0.1	19	82	i	0.87&0.74	-8	104&97
O=C(Nc1cccc(F)c1)NC1CC2CCCC(C1)N2C1CC1 (centres undefined)	-1.4	19	65	i	0.76	1	103
Nc1c(C(=O)N2CCCCC2)sc(=S)n1-c1ccccc1	-0.5	14	103	i	0.97	-5	84
CC(OC(=O)c1cc2c(ccc3ccccc32)oc1=O)c1nc2ccccc2s1 (centres undefined)	0.1	23	110	i	0.84	1	106
CCN(CC)CCNC(=O)c1c(C)n(-c2ccccc2)c2cc(Br)c(OC)cc12	2.1	-8	117	i	0.69	-3	105
COc1ccc(C(=O)C2CCCN(Cc3ccc4nonc4c3)C2)cc1OC (centres undefined)	.	.	.	i	0.99	-4	95
Cc1cccc(NC(=O)C23CCC(C)(C2Br)C3(C)C)c1 (centres undefined)	-1.8	-18	103	i	0.91	0	102
O=c1cc(N2CCCCC2)c(-c2ccccc2)nn1Cc1ccc(F)cc1	.	-77	87	i	1	-4	97
C/C=C(/C)C(=O)Nc1cccc(C2=NOC3(C2)C[C@@H](C(N)=O)N(C(=O)CC)C3)c1 (some centres undefined)	.	.	.	i	0.95	.	103
COc1ccc2nc(C)cc(SCC(=O)N/N=C/c3ccccc3)c2c1	-0.6	8	70	i	0.78	-6	121
CCc1ccc(NC(=O)CN(N=Nc2nonc2C)c2nonc2C)cc1	.	0	108	i	0.87	-4	103
CNC(=O)C12CCC(C)(c3nc4cc(C)c(C)cc4nc31)C2(C)C (centres undefined)	-1.8	-33	126	i	1.2	2	117
CC(C)N1CCc2c(sc(NC(=O)CCc3ccccc3)c2C(N)=O)C1	.	-67	150	i	0.95	-6	108
COc1cc(CC(=O)OCC(=O)Nc2cc([N+](=O)[O-])ccc2Cl)cc(OC)c1OC	-1.1	.	.	i	1	-2	103
Cc1nc(C(C)(C)O)n(-c2ccccc2)n1	-3.9	17	123	i	0.9	-2	95
COc1ccccc1NS(=O)(=O)c1ccc(Cl)cc1	-1.8	39	157	i	1.1	-6	105
COc1ccccc1Nc1nc(N)nc(CSc2nccc(C)n2)n1	0.3	8	55	i	0.97	-12	99
COc1ccc(Cn2c(N)c(C#N)c3nc4ccccc4nc32)cc1OC	2.6	-39	134	i	1	-3	102
COc1ccccc1NC(=O)c1ccc(NC(=O)CN2CCN(C(=O)c3ccco3)CC2)cc1	.	.	.	i	1	0	97
Cc1nnc(SCC(=O)Nc2ccc(Cl)cn2)[nH]c1=O	-1.4	-25	96	i	1.1	-1	86
CCOC(=O)/C(=N\Nc1ccc(Cl)cc1)c1csc(Nc2ccccc2)n1	-0.5	.	.	i	0.93	-3	100
COc1ccccc1CNC(=O)c1c(-c2ccccc2)nn(-c2ccccc2)c1C	-1.3	-3	93	i	0.86	-13	101
CC1CCN(C(=O)/C=C/c2ccc(C(C)(C)C)cc2)CC1	-0.4	-41	86	i	1	-5	100
Brc1cccc(CNc2nc3ccccc3n2CCN2CCOCC2)c1	.	.	.	i	0.97	3	96
Cc1cccc(C)c1NC(=O)Cn1nc(-c2ccccc2)nc1-c1ccccc1	-1.7	.	.	i	1	-8	102
CCOC(=O)c1ccc(NNC(C)=O)c([N+](=O)[O-])c1	.	.	.	i	1	-5	100

Results in HSV augment primary fold, RGS16-Gao and HSV augment, for some of the entries so far:
| smiles | HSV augment primary fold | RGS16-Gao | HSV augment |
| --- | --- | --- | --- |
| Cc1nnc(SCC(=O)Nc2ccc(Cl)cn2)[nH]c1=O | 1.1 | 86 | i |
| CCOC(=O)/C(=N\Nc1ccc(Cl)cc1)c1csc(Nc2ccccc2)n1 | 0.93 | 100 | i |
| COc1ccccc1CNC(=O)c1c(-c2ccccc2)nn(-c2ccccc2)c1C | 0.86 | 101 | i |

Next part.
compound	GALR2 agonist	INS promoter inh	INS promoter inh cell count	HSV augment	HSV augment primary fold	PKD1 kinase inh	RGS16-Gao
CCC(=O)NCCCOc1ccccc1	-1.4	.	.	i	0.77	0	108
O=C(c1cccc(Br)c1)c1conc1C(=O)c1ccco1	-0.6	33	78	i	0.76	13	110
Cn1ccc(C(=O)N/N=C/c2ccccc2[N+](=O)[O-])n1	.	.	.	i	0.98	.	104
O=C(OCCN=C1NS(=O)(=O)c2ccccc21)c1cccnc1	-1.3	.	.	.	.	0	102
Cc1ccc(N2C(=O)C3NN=C(C(=O)OCc4ccccc4)C3C2=O)cc1 (centres undefined)	-1.2	4	128	i	1	0	108
Cc1csc2ncc(C(=O)NC(C)c3ccccc3)c(=O)n12 (centres undefined)	0.5	.	.	i	0.79	-3	101
c1ccc(CN2CCN(CCOCCOc3cccc4ccccc34)CC2)cc1	.	.	.	i	0.82	-6	99
Cc1nc(N)sc1-c1nnc(SCC(=O)Nc2ccccc2C(F)(F)F)n1C	-3.4	69	149	i	0.8	2	108
COc1cccc(-n2nnnc2SCC(=O)Nc2cccc(C)n2)c1	-1.1	.	.	i	0.96	0	97
CCOC(=O)c1sc2nc(C)cc(-c3ccccc3)c2c1N	0.8	.	.	i	1	0	102
O=C(N/N=C/c1cccnc1)c1cccc(S(=O)(=O)N2CCCC2)c1	.	.	.	i	0.84	5	97
C#CCOCCOCCOCCNc1nc(N2CCN(C(=O)[C@H](C(C)C)n3cc(CCO)nn3)CC2)nc(N2CCN(C(=O)[C@H](CCCCN)n3cc(CCCC)nn3)CC2)n1	-0.2	27	114	i	0.84	-10	91
Cc1nc(N2CCN(c3ccccc3)CC2)[nH]c(=O)c1CCC(C)C	.	.	.	i	0.95	-3	96
CCc1ccc(NC(=O)c2cnc3scc(C)n3c2=O)cc1	-0.4	0	168	.	.	-1	103
Nc1cccc2c1C(=O)N(C(=O)c1cccc(S(=O)(=O)N3CCCC3)c1)C2=O	-1.9	39	72	i	1	-5	99
CCOC(=O)/C=C/C(=O)OCC(=O)Nc1ccc(Cl)cn1	-0.2	-6	91	i	0.87	7	107
CCOC(=O)c1cc2sc(C)cc2n1CC(=O)N1CCOCC1	-0.2	-50	79	i	0.96	-2	86
Cc1ccc(O)c(NC(=O)COc2cc(C)ccc2C)c1	-0.6	-14	108	i	0.85	-12	106
O=S(=O)(c1ccc(Cl)cc1)N1CCN=C1SCc1cccc(Cl)c1	-0.3	-25	89	i	1	-6	103
O=C(c1cccn2c(=O)c3ccc(Cl)cc3nc12)N1CCN(Cc2ccc3c(c2)OCO3)CC1	-1.4	.	.	i	1	1	101
CCCCN(C)CCCNC(=O)Cn1c(=O)sc2ccccc21	-0.7	.	.	i	1	-3	104
COc1ccc(/C=C/C(=O)NCCSCc2ccco2)cc1	-0.2	0	58	.	.	-12	100
C/C(=N\NC(=O)c1cccc(N/N=C(\C)c2ccco2)c1)c1ccco1	.	82*	53*	i	0.94	4	97
CCC1CCCCN1C(=O)C1CC(c2cc(Cl)c(OC)cc2OC)=NO1 (centres undefined)	-1.1	-23	111	i	0.91	9	101
C=CCc1cccc2cc(C(=O)NC)c(=O)oc12	-3.0	55	106	i	0.89	-2	100
Cc1ccc(S(=O)(=O)N/N=C/c2c(F)cccc2Cl)cc1	-3.9	23	76	i	0.91	-2	102
O=C(Cc1cc(=O)[nH][nH]1)N/N=C/c1cccc2ccccc12	.	.	.	i	0.94	-1	100
Cc1cc(C)c2c(N=NN3CCOCC3)[nH]nc2n1	-0.7	.	.	i	1.1	-1	99
O=S(=O)(c1ccccc1C(F)(F)F)N1CCOCC1	-1.0	64	91	i	1	14	100
O=C(NNC(=O)c1cccc(-n2cnnn2)c1)c1ccccc1	.	-8	85	i	0.9	-4	101
C=CCc1ccc(OCC(O)CN2CCN(Cc3ccccc3)CC2)c(OC)c1 (centres undefined)	.	21	102	i	1.1	-3	99
CCN(C(=O)Cc1nc(N)n[nH]1)C1(C(=O)Nc2ccccc2)CCCCC1	.	.	.	i	1.1	2	100
CC(/C=C/c1ccco1)=N\NC(=O)c1cccnc1	0.0	48	46	i	1.1	5	97
O=C(Nc1ccc(Cl)cc1)N(Cc1nc2ccccc2c(=O)[nH]1)Cc1cccs1	0.6	-6	71	i	0.98	2	112
Cc1ccc(-c2csc3ncnc(Oc4ccc5c(C)cc(=O)oc5c4)c23)cc1	0.7	-212	1	i	0.86	-2	100

Screens as filed in PubChem.
